Source: PubChem BioAssay
Env fusion inh: inhibitors of HIV-1 Env-driven cell-cell fusion, primary screen, HeLa-JRFL effector, CEM21 target cells, luciferase | actives 1.1% (n = 360,000) | inhibition, % at 12.3 µM;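 active = mean replicate inhibition score of at least 50 and every replicate individually at or above 50; inconclusive = only one of the two criteria met; inactive = mean below 50 and not all replicates reaching 50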;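 also: 0% = plate neutral controls and 100% = maraviroc near 300 nM; one replicate is shown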
Starred values were filed as active, the others as inactive; ? = inconclusive; & = joins results of further samples; [ ] = dose if it differs, or a comment. These rows are one share of the data (hit frequency here may not be typical).

mol | Env fusion inh
C[C@H]1CN([C@@H](C)CO)C(=O)c2c(c3ccccc3n2C)-c2ccccc2CO[C@@H]1CN(C)S(=O)(=O)c1cccs1 | 10.0[16.7 µM]
CN(C)C(=O)c1cccc(-c2ccc3n(c2=O)C[C@@H]2[C@@H](CO)[C@H](C(=O)NCC4CC4)N[C@H]32)c1 | 0.4[16.7 µM]
CNC(=O)C[C@@H]1CC[C@@H]2[C@@H](COc3ccc(NC(=O)C(C)C)cc3C(=O)N2C)O1 | -9.2[16.7 µM]
CO[C@H]1CN(C)C(=O)c2cc(NC(=O)C3CCCC3)ccc2OC[C@@H](C)N(C(C)=O)C[C@H]1C | -8.6[16.7 µM]
C[C@H](c1ccccc1)N1C[C@@H](COCc2ccccc2)Oc2cccc(Oc3ccccc3)c2S1(=O)=O | -8.5
Cc1ccc(S(=O)(=O)N(C)C[C@@H]2Oc3ccc(NC(=O)Nc4ccc(F)cc4)cc3CC(=O)N([C@@H](C)CO)C[C@@H]2C)cc1 | 4.1[16.7 µM]
O=C(Nc1cccc(F)c1)N[C@H]1CC[C@H](CCNS(=O)(=O)c2cccc(Cl)c2)O[C@@H]1CO | ?
C[C@H](CO)N1C[C@H](C)[C@@H](CN(C)CC2CC2)OCc2ccccc2-c2ccccc2C1=O | -4.2[16.7 µM]
O=C(N[C@@H]1CC[C@H](CCNS(=O)(=O)Cc2ccccc2)O[C@H]1CO)c1cnccn1 | 5.4[16.7 µM]
COc1ccc(-c2ccc3n(c2=O)C[C@@H]2[C@@H](CO)[C@H](C(=O)N4CCOCC4)N[C@H]32)cc1 | -6.4[16.7 µM]
C[C@H](NC(=O)C[C@H]1C[C@@H]2c3cc(NC(=O)Nc4ccc(C(F)(F)F)cc4)ccc3O[C@@H]2[C@@H](CO)O1)c1ccccc1 | -1.4[16.7 µM]
N#C[C@H]1[C@H](c2ccc(C#CC3CCCCC3)cc2)[C@H](CO)N1C(=O)Nc1ccc(F)cc1 | -2.5[16.7 µM]
COC(=O)[C@H]1[C@H](CO)[C@H]2Cn3c(ccc(-c4ccccc4OC)c3=O)[C@H]2N1CC1CCCC1 | 8.6[16.7 µM]
CO[C@H]1CN(C)C(=O)c2ccc(NC(=O)C3CCOCC3)cc2OC[C@@H](C)NC[C@@H]1C | -1.1[16.7 µM]
O=C(Nc1cccc(Cl)c1)N[C@H]1CC[C@@H](CCn2cc(Cc3ccccc3)nn2)O[C@H]1CO | -1.6[16.7 µM]
C[C@@H]1CCCCO[C@@H](CN(C)CC2CCCCC2)[C@H](C)CN([C@@H](C)CO)C(=O)c2cc(NC(=O)c3ccncc3)ccc2O1 | 4.3[16.7 µM]
C=CCN=C1NC(c2ccccc2)C(C(=O)OC)=C(C)N1C (configuration not stated) | -24.5
COCC(=O)N1C[C@@H](C)[C@@H](OC)CN(C)C(=O)c2ccc(NS(C)(=O)=O)cc2OC[C@H]1C | 19.6[16.7 µM]
CO[C@@H]1CN(C)C(=O)c2cc(NC(=O)C3CCCC3)ccc2OC[C@@H](C)N(Cc2ccc(F)cc2)C[C@H]1C | 45.9[16.7 µM]
Cc1ccc(Cc2c(-c3ccc(C#N)cc3)nc3ccc(C)cn23)cc1 | -9.8

Arranged by number of heavy atoms (largest number first): some entries from above
mol | Env fusion inh
C[C@H]1CN([C@@H](C)CO)C(=O)c2c(c3ccccc3n2C)-c2ccccc2CO[C@@H]1CN(C)S(=O)(=O)c1cccs1 | 10.0[16.7 µM]
COC(=O)[C@H]1[C@H](CO)[C@H]2Cn3c(ccc(-c4ccccc4OC)c3=O)[C@H]2N1CC1CCCC1 | 8.6[16.7 µM]
CO[C@H]1CN(C)C(=O)c2ccc(NC(=O)C3CCOCC3)cc2OC[C@@H](C)NC[C@@H]1C | -1.1[16.7 µM]

Continuation:
mol | Env fusion inh
O=C(O)C[C@H]1CC[C@@H]2[C@H](COC[C@H](O)CN2S(=O)(=O)c2ccc(Oc3ccccc3)cc2)O1 | -3.3[16.7 µM]
O=C([C@@H]1[C@@H](CO)[C@@H]2Cn3c(cccc3=O)[C@@H]2N1Cc1cc(F)ccc1F)N1CCOCC1 | -26.3[16.7 µM]
C[C@@H]1CCCCO[C@@H](CN(C)Cc2ccncc2)[C@H](C)CN([C@H](C)CO)C(=O)c2cc(NC(=O)CCCN(C)C)ccc2O1 | 7.0[16.7 µM]
COCC(=O)N(C)C[C@H]1Oc2ncc(C#CC(C)(C)O)cc2C(=O)N([C@@H](C)CO)C[C@@H]1C | 9.7[16.7 µM]
Cc1noc(C)c1NC(=O)Nc1ccc2c(c1)C(=O)N(C)[C@@H]1CC[C@H](CC(=O)N[C@@H]3CCN(Cc4ccccc4)C3)O[C@@H]1CO2 | -26.4[16.7 µM]
COC(=O)C1=C(C)N(Cc2ccccc2)C(=S)NC1c1ccc(Br)cc1 (configuration not stated) | 13.4
C=C[C@@H](COC(C)=O)N(Cc1ccccc1[N+](=O)[O-])S(=O)(=O)c1ccc(Br)cc1 | -13.5[16.7 µM]
Cc1ccc(S(=O)(=O)Nc2ccc3c(c2)C(=O)N([C@H](C)CO)C[C@@H](C)[C@H](CN(C)C(=O)Nc2ccc4c(c2)OCO4)O3)cc1 | 5.8[16.7 µM]
O=C(C[C@H]1C[C@@H]2c3cc(NC(=O)c4ccc5c(c4)OCO5)ccc3O[C@@H]2[C@@H](CO)O1)NCCN1CCCCC1 | 17.7[16.7 µM]
Cc1cccc(-c2ccc3c(c2)[C@@H]2C[C@H]4[C@@H](CN2CC3)[C@H](C)ON4C)c1 | 21.5
COCC(=O)N1CCC2(CC1)CN(Cc1cccc(F)c1)[C@H](CO)c1c2c2ccc(OC)cc2n1C | -8.6[16.7 µM]
CCCNC(=O)C[C@@H]1C[C@H]2c3cc(NC(=O)Nc4ccccc4F)ccc3O[C@H]2[C@H](CO)O1 | -5.9[16.7 µM]
CCCNC(=O)C[C@H]1C[C@H]2c3cc(NC(=O)Nc4ccccc4F)ccc3O[C@H]2[C@H](CO)O1 | -1.7[16.7 µM]
CCC(C)N(Cc1ccc(OC)cc1OC)S(=O)(=O)c1cc(Br)ccc1Br (configuration not stated) | 46.7
C#CC1c2ccccc2CCN1CC=C (configuration not stated) | 12.0
O=C(C[C@H]1CC[C@H]2[C@@H](COC[C@H](O)CN2CCC(F)(F)F)O1)NCc1ccc(Oc2ccccc2)cc1 | 56.4*[16.7 µM]
COc1cccc(-c2cccc(-c3nc(C(=O)Nc4ccc(-c5ccccc5)cc4)cc4c3[C@@H](CCO)N(S(=O)C(C)(C)C)C4)c2)c1 (some centres not stated) | -12.4[16.7 µM]
CN(C)CCCNC(=O)C[C@@H]1CC[C@H]2[C@@H](COC[C@@H](O)CN2Cc2ccc(Cl)c(Cl)c2)O1 | 7.7[16.7 µM]
CN1CCN(C(=O)C[C@H]2C[C@@H]3c4cc(NS(C)(=O)=O)ccc4O[C@@H]3[C@H](CO)O2)CC1 | 64.2*[16.7 µM]
COc1cccc(NC(=O)N(C)C[C@H]2OCc3ccccc3-c3c(n(C)c4ccccc34)C(=O)N([C@@H](C)CO)C[C@H]2C)c1 | -8.4[16.7 µM]

Reprinted from the part before: 2 entries, followed by the next part.
Structure | Env fusion inh
CN1CCN(C(=O)C[C@H]2C[C@@H]3c4cc(NS(C)(=O)=O)ccc4O[C@@H]3[C@H](CO)O2)CC1 | 64.2*[16.7 µM]
COc1cccc(NC(=O)N(C)C[C@H]2OCc3ccccc3-c3c(n(C)c4ccccc34)C(=O)N([C@@H](C)CO)C[C@H]2C)c1 | -8.4[16.7 µM]
CS(=O)(=O)N1Cc2cc(C(=O)NCC3CC3)nc(-c3cccc(-c4cncnc4)c3)c2[C@H]1CCO | 3.0[16.7 µM]
O=C(C[C@H]1C[C@H]2c3cc(NC(=O)Cc4ccncc4)ccc3O[C@H]2[C@@H](CO)O1)NCc1cccc(F)c1 | 3.1[16.7 µM]
COc1cccc(-c2ccc3n(c2=O)C[C@H]2[C@H](CO)[C@@H](C(=O)NCCN4CCCCC4)N(C)[C@@H]32)c1 | 4.4[16.7 µM]
Cc1noc(C)c1NC(=O)Nc1ccc2c(c1)C(=O)N(C)[C@H]1CC[C@H](CC(=O)N[C@@H]3CCN(Cc4ccccc4)C3)O[C@@H]1CO2 | 1.5[16.7 µM]
COc1ccc(NC(=O)N(C)C[C@H]2OCc3ccccc3-c3c(n(C)c4ccccc34)C(=O)N([C@@H](C)CO)C[C@H]2C)c(OC)c1 | -19.1[16.7 µM]
CC(NC(=O)C(NC(=O)OCc1ccccc1)C(C)O)C(=O)OCc1ccccc1 (configuration not stated) | -25.1
CN1CCN(C(=O)C[C@H]2CC[C@H]3[C@@H](COC[C@H](O)CN3CC3CCOCC3)O2)CC1 | -25.1[16.7 µM]
Cc1ccccc1S(=O)(=O)Nc1ccc2c(c1)C(=O)N(C)[C@H]1CC[C@@H](CC(=O)O)O[C@@H]1CO2 | -16.1[16.7 µM]
COc1cccc(C(=O)N[C@H](C(=O)N2CCC[C@H]2C(=O)NCc2ccccc2)c2ccccc2)c1 | 9.4
CCC(=O)N1[C@H](C(=O)N(C)C)[C@@H](CO)[C@@H]2Cn3c(ccc(-c4ccc(F)cc4)c3=O)[C@@H]21 | -8.2[16.7 µM]
C[C@H](CO)N1C[C@H](C)[C@@H](CN(C)Cc2ccc3c(c2)OCO3)OCc2cn(nn2)CCCC1=O | 1.4[16.7 µM]
CC=Cc1ccc2n(c1=O)C[C@@H]1[C@@H](CO)[C@H](C(=O)NCC3CC3)N(Cc3nccs3)[C@H]21 (mixture of isomers) | 5.4[16.7 µM]
CS(=O)(=O)N1[C@H](C(=O)NCCc2ccncc2)[C@@H](CO)[C@@H]2Cn3c(ccc(C4=CCCC4)c3=O)[C@@H]21 | 6.2[16.7 µM]
CCCC#Cc1ccc2c(c1)O[C@@H](CN(C)C(=O)Nc1ccccc1F)[C@@H](C)CN([C@@H](C)CO)S2(=O)=O | -51.6[16.7 µM]
COc1ccccc1S(=O)(=O)N[C@@H]1CC[C@@H](CC(=O)NCc2cccc(F)c2)O[C@@H]1CO | -1.8[16.7 µM]
CC(C)CCN(C)[C@H]1C[C@H]2c3[nH]c4ccccc4c3CCN2C[C@H]1[C@H](C)O | 22.8
C[C@@H]1CN([C@@H](C)CO)C(=O)c2cc(N(C)C)ccc2O[C@@H](C)CCCCO[C@H]1CN(C)Cc1ccc2c(c1)OCO2 | -18.5&-3.9[16.7 µM]
O=C1CCCc2cnnn2COC[C@H](Cc2ccccc2)N1 | -31.7[16.7 µM]
CN(C)C(=O)C[C@@H]1C[C@@H]2c3cc(NC(=O)Nc4ccc(F)cc4)ccc3O[C@@H]2[C@H](CO)O1 | -11.6[16.7 µM]
COc1ccccc1-c1cccc(-c2nc(C(=O)N3CCCCC3)cc3c2[C@H](CCO)N([S@@](=O)C(C)(C)C)C3)c1 | 17.4[16.7 µM]
COC(=O)[C@]12C[C@H](CC(=O)N3CCC(c4ccccc4)CC3)C(=O)N(Cc3ccccc3)C1=C[C@H](C(C)(C)C)O[C@@H]2C | 1.5
COc1ccc(S(=O)(=O)N2CCCc3nc(-c4ccc(Br)cc4)ccc32)cc1 | 0.6
CNC[C@@H]1OCCCC[C@@H](C)Oc2ccc(NS(=O)(=O)c3cccs3)cc2C(=O)N([C@H](C)CO)C[C@H]1C | 34.1[16.7 µM]
C[C@@H]1CCCCO[C@H](CN(C)CC2CC2)[C@H](C)CN([C@@H](C)CO)C(=O)c2cc(NC(=O)c3ccccc3)ccc2O1 | 0.8[16.7 µM]
CO[C@H]1CC[C@H]2CCN(C)C(=O)[C@H](C)[C@H](OC)CN(C)C(=O)c3cc(C#N)ccc3OC[C@@H]1O2 | -10.3[16.7 µM]
CNC[C@H]1OCCCC[C@@H](C)Oc2ccc(NC(=O)Nc3ccc(C(F)(F)F)cc3)cc2C(=O)N([C@H](C)CO)C[C@H]1C | 14.9[16.7 µM]
Fc1ccc(-c2ccc3c(n2)CCCN3Cc2ccccc2C(F)(F)F)cc1 | 5.0
C[C@@H]1CN([C@@H](C)CO)C(=O)c2cc(NC(=O)Cc3cn(C)c4ccccc34)ccc2O[C@@H]1CN(C)Cc1ccncc1 | 5.0[16.7 µM]
CC(C)CC#Cc1cnc2c(c1)C(=O)N([C@@H](C)CO)C[C@@H](C)[C@@H](CN(C)C(=O)c1cccc(F)c1)O2 | -1.7[16.7 µM]
COc1ccc2nc(-c3ccc(CN4CCC(c5nc6ccccc6[nH]5)CC4)cc3)c(-c3ccccc3)nc2c1 | 41.6
COC(=O)C1=C(C)N(Cc2ccccc2C(F)(F)F)C(=NCc2ccc3c(c2)OCO3)NC1c1ccccc1C(F)(F)F (configuration not stated) | -21.1
C[C@@H]1CN([C@H](C)CO)C(=O)Cc2cc(NC(=O)Nc3ccc(F)cc3)ccc2O[C@H]1CN(C)Cc1ccc(C(F)(F)F)cc1 | 15.4[16.7 µM]
CO[C@@H]1CC[C@@H]2CCN(C)C(=O)[C@H](C)CN(C)C(=O)c3cccc(C#N)c3OC[C@H]1O2 | -2.6[16.7 µM]
C[C@@H]1CN([C@@H](C)CO)C(=O)c2cc(/C=C/c3ccccc3)cnc2O[C@@H]1CN(C)C(=O)C1CC1 | -2.4[16.7 µM]
C[C@H](CO)N1C[C@H](C)[C@H](CN(C)Cc2ccc3c(c2)OCO3)Oc2ccc(NC(=O)Cc3ccccc3)cc2C1=O | 8.7[16.7 µM]
CN(C)C(=O)C[C@H]1CC[C@H](NC(=O)C2CCOCC2)[C@@H](CO)O1 | 11.0[16.7 µM]
COc1cccc(NC(=O)Nc2ccc3c(c2)C(=O)N(C)C[C@H](OC)[C@H](C)CN(C)[C@H](C)CO3)c1 | 3.0[16.7 µM]
CN1C(=O)c2cc(NC(=O)c3ccc(F)c(F)c3)ccc2OC[C@H]2O[C@@H](CC(=O)N[C@H]3CCN(Cc4ccccc4)C3)CC[C@H]21 | 20.1[16.7 µM]
C[C@@H]1CN([C@@H](C)CO)S(=O)(=O)c2ccc(-c3ccc(F)cc3)cc2O[C@H]1CN(C)Cc1ccccc1C(=O)O | 7.3[16.7 µM]
